Screening results deposited in PubChem BioAssay by several laboratories.
PrP 5UTR inh: inhibition of PrP 5' UTR reporter expression | cell-based PrP 5' UTR mRNA reporter, plate reader | inhibition, % (no concentration beside the values) | 340,000 tested, 0.35% active;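 active = every replicate at 50% or more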;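 also: 0 = median of the neutral control wells; tested in H4 reporter cells; numbers are from one replicate; inactives centre near -14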
Sa RN4220 lethal: S. aureus RN4220 growth inhibition. OD600, 16 h. inhibition, % (test concentration not listed). 330,000 tested, 0.33% active. AID 1259311;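 active = z-score of -3 or lower and OD600 up to 0.18 on both plates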;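 also: plate controls were untreated cells for no effect and reference antibiotic for full effect; stock transfer was 100 nL into about 80 µL; one replicate is shown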
ugtP null kill: compounds lethal to S. aureus RN4220 ugtP deletion mutant. OD600 growth, 16 h; some inactives read as strong as hits. growth inhibition, % (no concentration beside the values). 330,000 tested, 0.54% active. AID 1259309;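 active = z-score under -3 and OD600 up to 0.15 on both plates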;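 also: plate controls were untreated wells for no effect and antibiotic for full effect; wells of about 80 µL received 100 nL stock; the first replicate is given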
BJeLR lethal: kills HRASV12-expressing BJeLR cells. AID 1554. BJeLR (HRASV12) viability, CellTiter-Glo ATP luminescence, 48 h; reference of the scale not given here. inhibition, % (no concentration beside the values). 300,000 tested, 0.17% active;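 active = replicate mean above 50%; inconclusive = above 50% but judged a plate artefact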;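 also: 50 nL library stock added to about 25 µL; numbers are from one replicate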
Mtb hypoxia inh: Mtb hypoxia fluorescent reporter inhibition | fluorescence inhibition, % (test concentration not listed) | M. tuberculosis hypoxia-regulated fluorescent reporter, fluorescence | 300,000 tested, 0.1% active;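 active = 35 to 45% if threefold the growth effect, above 45% if 1.5-fold the growth effect; inactive = the rest, general growth blockers included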;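 also: wells of about 50 µL received 100 nL stock; 0% = vehicle wells and 100% = reference inhibitor wells; whole bacteria with a GFP reporter of the hypoxia response; strong numbers were not always called active; many hits fall short of the cut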
Bead autofluor: counter-screen for toxin protease inhibitors: compound fluorescence; compound autofluorescence counterscreen, microsphere flow cytometry; active compounds read high; fluorescence intensity (test concentration not listed); 360,000 tested, 3.1% active; AID 624483;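 active = at least 3 SD above the mean of all compounds, about 16000 in these data; inconclusive = too few beads counted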;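 also: 100 nL of 1 mM stock went into each well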
Mtb hypoxia inh growth: recorded beside Mtb hypoxia inh, whose call it bears; growth inhibition, %; measured here: M. tuberculosis growth (absorbance);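 0% = vehicle and 100% = reference antibiotic; read after six days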
Active calls of the source: *; ? = inconclusive; . = no result given; & = joins results of further samples; ! = not active in a repeat.

SMILES	PrP 5UTR inh	Sa RN4220 lethal	ugtP null kill	BJeLR lethal	Mtb hypoxia inh	Mtb hypoxia inh growth	Bead autofluor
CN1CCN(c2ccc(NC(=O)c3ccc4ccccc4c3)cc2)CC1	-10	.	.	4	.	.	5359
COc1ccc(OCCCn2cc(/C=C3/C(=N)N4C=C(C)SC4=NC3=O)c3ccccc32)cc1	-19	2.9	-20	-11	-7	-6	12019
C=C1C(O)(c2ccccc2)C2CC[N+]1(C)CC2 (stereo unspecified)	-9	1.3	1	-6	7	-1	9719
O=C(NCCc1ccccc1)C1CCCN(S(=O)(=O)c2cccnc2)C1 (stereo unspecified)	-7	-1.4	0	5	-4	8	4712
Cn1ncc(N=Cc2ccc([N+](=O)[O-])cc2)c1C(=O)N1CCOCC1	-26	8.0	9	0	12	4	10722
Cc1c(C(=O)N2CCN(c3ccccc3)CC2)oc2c(Cl)cccc12	-9	-0.4	-3	.	7	10	3740
O=C(NCCc1ccc(F)cc1)c1cccc(NC(=O)c2ccccc2)c1	-30	15	11	-3	1	5	.
CCCN1C(=O)c2ccccc2NC1c1ccc(OC)c(CSc2ccccn2)c1 (stereo unspecified)	-17	-2.7	9	-3	3	9	6662
COc1ccc(S(=O)(=O)NCCc2csc(C)n2)cc1C	-27	-12	-9	2	5	13	2962
COc1ccc(OCC(=O)NN=Cc2ccc(O[C@@H]3O[C@H](CO)[C@@H](O)[C@H](O)[C@H]3O)cc2)cc1	.	4.7	-1	.	5	15	.
Cc1cccc(C(=O)NCc2ccc(S(N)(=O)=O)cc2)c1[N+](=O)[O-]	-33	-2.1	4	-11	-3	-32	2600
COc1ccc(/C=C/C(=O)Nc2cc(C)on2)cc1	-56	1.0	1	-2	-2	2	2479
Cc1ccc(COC(=O)c2cc(S(=O)(=O)N3CCOCC3)ccc2C)cc1	-14	2.3	-5	.	5	4	6347
CCCc1cc(=O)oc2cc(OCC(=O)NCc3ccccn3)ccc12	-24	0.0	4	0	-7	-2	4914
O=C(O)CCCNC(=O)/C(=C\c1ccc(Cl)cc1)NC(=O)c1ccccc1Br	-8	6.1	10	0	6	0	4283
COc1cc2ccccc2cc1C(=O)Nc1ccc(O)cc1	-88	-2.4	8	-3	12	6	3040
CN(C)C(=O)c1c(-c2ccccc2)oc2ccc(O)cc12	-16	4.2	12	-3	8	6	8426
CCCn1c(=O)n(N)c2ccccc21	-27	5.0	2	2	-1	6	2350
O=C(NCC1CCCN1S(=O)(=O)c1cccs1)c1cccc(Cl)c1 (stereo unspecified)	-21	3.3	4	10	5	5	12204
Cc1nc(SCc2ccccc2)c2ccsc2n1	-11	2.3	11	-3	9	5	3956
CCOc1ccc(C(=O)C[n+]2ccccc2C)cc1	-30	3.2	1	-4	2	-2	9904
COc1cccc2c1O/C(=N\O)C(C(=O)Nc1cccc(C)c1C)C2 (stereo unspecified)	-22	.	.	1	.	.	3480
CC1=Nc2ccc(C)c3nc(C)cc(c23)N1c1ccc(C)cc1	-14	1.1	8	1	.	.	5454
Cc1c(NC(=S)NC(NC(=O)C(C)(C)C)C(Cl)(Cl)Cl)c(=O)n(-c2ccccc2)n1C (stereo unspecified)	-11	8.6	10	-8	1	-6	2052
O=S(=O)(NCc1ccc(F)cc1)c1ccc(-c2cnc(C3CC3)o2)cc1	-1	4.2	-7	4	-8	8	5167

Next section:
SMILES	PrP 5UTR inh	Sa RN4220 lethal	ugtP null kill	BJeLR lethal	Mtb hypoxia inh	Mtb hypoxia inh growth	Bead autofluor
COc1ccc(S(=O)(=O)NCCC(=O)NCc2ccccc2)cc1	-13	-2.0	2	-3	-6	1	21763*
Cc1[nH]nc(N=CC2=C(O)CC(C)(C)CC2=O)c1-c1ccc(Cl)cc1	-20	-2.3&3.6	1&10	0	-17&2	0&2	20907*!
COc1ccccc1C(CCN(Cc1cccs1)C(C)=O)c1ccco1 (stereo unspecified)	-3	0.2	1	0	.	.	4770
CCC(=O)NCCc1nc2ccccc2[nH]1	-36	1.4	7	-1	2	5	8101
CC(C)c1ccc(N2C(=O)/C(=C/N(C)C)SC2=S)cc1	-20	-3.2	-13	-3	6	11	5591
CCn1c(CC(=O)Nc2ccc(C)cc2)nnc1SCC(=O)NCc1ccccc1	-5	0.5	-2	-4	3	6	?
Cn1c(CC2Sc3ccccc3NC2=O)nnc1SCC(=O)c1ccc(Cl)cc1 (stereo unspecified)	-26	0.2	0	1	-1	-10	5403
CCOc1ccc(OCC)c(-c2c(=O)n(OCc3ccc(Cl)cc3)c3ccccc3[n+]2[O-])c1	-4	6.2	9	3	1	12	9968
CCOc1ccc(NC(=S)N2CCc3cc(OC)c(OC)cc3C2COc2ccc3c(C)cc(=O)oc3c2)cc1 (stereo unspecified)	-18	7.3	-6	1	13	6	2032
O=C(Cc1ccccc1)NN1CCCCC1	-13	-0.5	0	-12	11	-7	3096
CCc1ccc(OCc2nnc(SCC(=O)Nc3cccc(C(=O)N4CCOCC4)c3)o2)cc1	-11	-0.4	14	0	4	11	2064
CCOC(=O)c1ccc(NC2c3ccccc3C(=O)N2c2ccc(C)cn2)cc1 (stereo unspecified)	-12	7.1	4	-8	0	-3	4622
CC(C)CC(=O)NC(=S)Nc1ccc(F)cc1F	-12	1.7	86*	-4	6	12	2255
O=c1oc2ccccc2c2c1cnc1ccccc12	64*	0.7	-1	.	3	10	3495
Cn1c2ccccc2c2nnc(NN=Cc3ccc(O)cc3)nc21	.	4.1	4	.	5	-3	.
Cc1c(CNCCC2=CCCCC2)c(C(=O)O)c(C)n1Cc1ccccc1	-25	-4.0	-2	1	-2	4	4334
O=C(N/C(=C\c1cccnc1)C(=O)N1CCOCC1)c1cccc(Br)c1	-63	3.4	-1	-3	5	10	5978
Cn1c(CN2CCN(CCO)CC2)c(C#N)c2ccccc21	-13	5.2	6	1	7	7	4715
Cc1nn(C/C(C#N)=N\O)c(C)[n+]1N	-6	.	.	-5	.	.	3173
Cc1cc(=O)oc(C)c1C(=O)NCc1c(F)cc(F)cc1F	-15	3.5	3	0	3	14	11214
COC(=O)c1ccc(NC(=O)COC(=O)C2CC(=O)N(Cc3ccccc3)C2)cc1 (stereo unspecified)	-18	-2.4	-17	-12	-4	11	3566
CN(C(=O)CCNC(=O)Cn1cnc2ccccc2c1=O)c1ccc(Br)cc1	-15	-3.1	-2	2	0	2	3551
COc1cccc(CC(=O)OCC(=O)N(C)CC(=O)Nc2ccccc2Cl)c1	.	0.4	2	.	6	-7	.
COc1ccc(C(NC(=O)C(C)C)c2c(O)ccc3ccccc23)cc1OC (stereo unspecified)	-8	-1.4	16	0	4	5	10364
Cc1c(NC(=O)CSc2ccccc2Cl)c(=O)n(-c2ccccc2)n1C	-27	-2.3	8	-7	-6	-1	2099

Gathered by group, the entries above containing an NH in an aromatic ring (two)
SMILES	PrP 5UTR inh	Sa RN4220 lethal	ugtP null kill	BJeLR lethal	Mtb hypoxia inh	Mtb hypoxia inh growth	Bead autofluor
Cc1[nH]nc(N=CC2=C(O)CC(C)(C)CC2=O)c1-c1ccc(Cl)cc1	-20	-2.3&3.6	1&10	0	-17&2	0&2	20907*!
CCC(=O)NCCc1nc2ccccc2[nH]1	-36	1.4	7	-1	2	5	8101

Back to the main list, repeating the 2 entries before the break.
SMILES	PrP 5UTR inh	Sa RN4220 lethal	ugtP null kill	BJeLR lethal	Mtb hypoxia inh	Mtb hypoxia inh growth	Bead autofluor
COc1ccc(C(NC(=O)C(C)C)c2c(O)ccc3ccccc23)cc1OC (stereo unspecified)	-8	-1.4	16	0	4	5	10364
Cc1c(NC(=O)CSc2ccccc2Cl)c(=O)n(-c2ccccc2)n1C	-27	-2.3	8	-7	-6	-1	2099
Cn1c(=O)oc2cc(S(=O)(=O)NCC3CCCO3)ccc21 (stereo unspecified)	11	2.4	1	-1	10	2	10197
CC(CNC(=O)CC(C)(C)C)NC(=O)CC(C)(C)C (stereo unspecified)	-8	2.2	-4	1	3	7	4010
Cc1ccc(C)c(S(=O)(=O)N(C(=O)c2ccncc2)c2ccc(OC(=O)c3ccncc3)cc2)c1	-21	1.7	5	5	5	6	3336
CC(C)CCn1c(=O)c(C(=O)NN=Cc2cccc(F)c2)c(O)c2ccccc21	.	101*	99*	.	5	3	.
O=C(CSc1nnc(Cc2ccccc2)n1Cc1ccco1)NC12CC3CC(CC(C3)C1)C2	-7	0.5	-4	1	14	8	23614*
CCOc1ccccc1C1C(C(=O)OC)=CN(C)C=C1C(=O)OC	-29	3.1	2	2	15	3	19714*
CCOc1ccc(-c2nnn(CC(=O)c3ccc4c(c3)OCCO4)n2)cc1OCC	-21	4.1	4	-1	16	9	10911
COc1ccc([N+](=O)[O-])cc1C(=O)NCCOc1ccc(Cl)cc1	-8	3.7	-4	-8	3	11	3605
CC1=C(C(=O)OCc2cc(C)on2)N2C(=O)C(NC(=O)OCc3cc(C)on3)C2SC1 (stereo unspecified)	.	5.8	0	.	6	0	.
CCCCOc1ccc(CSC2=NCCN2)cc1[N+](=O)[O-]	-5	-1.7	2	1	-2	9	2115
CCCc1nc2oc3c(NCCCN(C)C)ncnc3c2c2c1CCCC2	-16	-1.5	24	6	10	1	.
Cc1cccc(Cc2nc3ccccc3[nH]2)c1	-18	2.5	11	.	9	6	4116
CCOC(=O)c1cnn(CCOC(=O)c2ccccc2)c1NC(=O)c1ccccc1	-15	1.9	-2	-9	8	0	1870
O=C(CSCCOc1ccccc1)NCc1ccncc1	-5	0.2	1	-6	-17	9	4211
CCOC(=O)N1CCN(C(=O)CSCc2ccccc2)CC1	-51	7.7	3	-13	-2	2	2165
CCOc1ccccc1CN1CCN(Cc2ccc3cc(F)ccc3n2)CC1CCO (stereo unspecified)	-19	0.6	6	4	-7	8	3740
O=C(NCCN1CCOCC1)c1ccc(=O)n(Cc2ccc(Cl)cc2)c1	-19	4.1	5	0	11	7	4184
O=C(CSc1ncn(-c2ccccc2)n1)Nc1nc(-c2ccccc2)cs1	-13	-0.4	-9	-5	4	8	20833*
Cc1ccc(NC(=O)CSc2n[nH]c(C)c2[N+](=O)[O-])cc1	1	7.6	-5	18	2	3	2518
COc1cc(C(=O)NCC2CCCO2)ccc1OCc1c(C)noc1C (stereo unspecified)	-20	2.2	7	-3	.	.	5135
NC(=O)c1ccc(Cn2c(C(=O)c3ccc(Cl)cc3)c3ccccc3[n+]2[O-])cc1	-17	8.0	-16	.	4	15	3014
COC(=O)CSc1nnc(-c2ccccc2OC)o1	-23	1.4	4	4	8	12	11270
O=C(NN=C/C(Br)=C/c1ccccc1)C(O)c1ccccc1 (stereo unspecified)	.	1.9	7	.	5	2	.
Cc1ccc(C)c(-n2nnnc2Sc2nnnn2-c2ccccc2)c1	-11	14	4	2	7	11	3749
CCOc1cc(NC(=O)C2CCCCC2)c(OCC)cc1NC(=O)c1ccccn1	-12	30	2	0	-3	-1	2039

(continued)
SMILES	PrP 5UTR inh	Sa RN4220 lethal	ugtP null kill	BJeLR lethal	Mtb hypoxia inh	Mtb hypoxia inh growth	Bead autofluor
Fc1ccc(C2N(c3ccccc3)C(=S)N3CCCN23)cc1 (stereo unspecified)	-21	2.9	16	2	3	-2	3784
CCOC(=O)N1CCN(CC(=O)N2CCC(C(N)=O)CC2)CC1	-22	2.5	7	-6	-4	5	4562
COc1ccc(-n2nc3c(c2NC(=O)COc2cccc(OC)c2)CS(=O)(=O)C3)cc1	-7	3.6	0	1	1	1	5027
Cc1ccc(-n2nnnc2SCC(=O)NNC(=O)c2ccco2)c(C)c1	-7	2.8	2	7	5	13	5226
NC(=O)c1nsc(C(=O)N(c2ccccc2F)C(C(=O)NCc2ccccc2)c2ccc(O)cc2)c1N (stereo unspecified)	-3	4.1	-1	22	13	-2	5777
O=C(Nc1cc(Sc2ccccn2)cc([N+](=O)[O-])c1)c1ccc(Cl)cc1	6	-6.9	-38	-8	.	.	2102
Cc1ccc(NC(=O)c2ccccc2-c2ccccc2C(=O)O)cc1C	-5	2.8	4	-8	.	.	4792
Cn1c(=O)c2c([nH]c(=O)n2C)n(C)c1=O	1	3.1	2	-13	9	3	3495
Cc1cc(S(=O)(=O)N2CCN(c3c(C)cccc3C)CC2)ccc1F	-45	2.9	55	3	.	.	4377
CCOC(=O)c1sc(-c2ccccc2)cc1NC(=O)Nc1ccc([N+](=O)[O-])cc1	-33	-5.2	-6	6	-6	8	2105

A section from further up:
SMILES	PrP 5UTR inh	Sa RN4220 lethal	ugtP null kill	BJeLR lethal	Mtb hypoxia inh	Mtb hypoxia inh growth	Bead autofluor
Cc1cc(S(=O)(=O)N2CCN(c3c(C)cccc3C)CC2)ccc1F	-45	2.9	55	3	.	.	4377
CCOC(=O)c1sc(-c2ccccc2)cc1NC(=O)Nc1ccc([N+](=O)[O-])cc1	-33	-5.2	-6	6	-6	8	2105
